# From PubChem BioAssay
# HSV replic up – HSV replication enhancement; HSV replication augmentation in cells, fold increase; AID 1956; 220,000 compounds, 0.005% hits; maximum fold increase;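 active = peak rise of 1.5-fold or more in the series; tested in PC3 cells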;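 also: first round at 10 µM; read as green reporter fluorescence; hits show the peak of a series up to 25 µM; 1 = signal of infected wells without compound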
# GALR2 agonist – agonists of human galanin receptor 2 (GALR2); GALR2-expressing cells, agonist activation read-out; 140,000 compounds, 0.48% hits; activation, %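 (tested at 5 µM)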; O43603;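 active = above mean plus 3 SD of all compounds, about 5% in these data, not always enough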;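 also: 0% = vehicle buffer wells and 100% = reference agonist at full effect; tested in CHO reporter cells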
# Target sequence (O43603 whole entry, looked up): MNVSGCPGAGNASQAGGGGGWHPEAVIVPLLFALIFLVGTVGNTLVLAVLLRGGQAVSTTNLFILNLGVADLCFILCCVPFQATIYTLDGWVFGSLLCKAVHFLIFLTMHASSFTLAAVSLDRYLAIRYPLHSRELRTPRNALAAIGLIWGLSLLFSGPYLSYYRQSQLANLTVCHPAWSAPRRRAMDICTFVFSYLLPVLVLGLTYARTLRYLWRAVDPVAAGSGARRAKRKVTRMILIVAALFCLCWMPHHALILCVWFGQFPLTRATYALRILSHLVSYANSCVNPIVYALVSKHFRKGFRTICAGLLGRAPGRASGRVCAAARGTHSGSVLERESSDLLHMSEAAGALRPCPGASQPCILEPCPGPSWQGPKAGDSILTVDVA
# PKD1 kinase inh – blocks activity of human protein kinase D1; inhibition, %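 (about 10 µM by stock and volumes)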; PKD1 kinase fluorescence polarization assay; Q15139; 200,000 compounds, 0.056% hits;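 active = inhibition of 50% or more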;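 also: controls were vehicle for no effect and a reference inhibitor for full effect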
# INS promoter inh – TRM-6 insulin promoter activity inhibition; inhibition, % at 2 µM; 130,000 compounds, 0.9% hits; AID 1273; TRM-6 cells (human fetal islet line), insulin promoter-eGFP reporter, imaging; reporter expression induced with tamoxifen;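 active = inhibition above the mean plus 3 SD, with well images judged a real hit on visual review, cut at about 60% in these data, passing the limit was not always enough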
# RGS16-Gao – modulates binding between human RGS16 and Galphao. bead-based flow cytometry RGS16-Galphao binding, fluorescence; actives lie on both sides. binding response (% of control), % at 10 µM. 220,000 compounds, 0.38% hits. AID 1441;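 active = below 25% or above 175%, edge rows of some plates excepted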;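 also: Galphao activated by GDP with aluminum fluoride before binding; 100% = wells without compound and 0% = beads without RGS; some results beyond the cut were filed as inactive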
# Target sequence (O15492 whole entry, looked up): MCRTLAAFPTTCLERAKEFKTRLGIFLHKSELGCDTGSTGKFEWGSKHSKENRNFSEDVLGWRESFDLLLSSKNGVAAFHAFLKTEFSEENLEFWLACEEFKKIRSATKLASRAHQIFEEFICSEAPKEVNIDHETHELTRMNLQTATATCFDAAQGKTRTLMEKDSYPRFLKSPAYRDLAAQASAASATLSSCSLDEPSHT
# Target sequence (P09471 whole entry, looked up): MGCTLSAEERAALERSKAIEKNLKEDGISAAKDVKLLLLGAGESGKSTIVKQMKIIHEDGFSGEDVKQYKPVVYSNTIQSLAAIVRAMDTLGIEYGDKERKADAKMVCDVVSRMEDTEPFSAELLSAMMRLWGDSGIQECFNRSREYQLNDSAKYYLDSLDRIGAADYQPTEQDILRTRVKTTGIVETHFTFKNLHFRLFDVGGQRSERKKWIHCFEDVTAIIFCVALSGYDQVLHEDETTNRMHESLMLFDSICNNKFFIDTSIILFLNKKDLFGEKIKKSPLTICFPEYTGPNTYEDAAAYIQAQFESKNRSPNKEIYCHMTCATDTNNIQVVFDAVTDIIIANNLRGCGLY
# INS promoter inh cell count – further read-out of INS promoter inh, marked with its call; normalized cell count, %; measured here: cell count, toxicity; reference of the scale not given here;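 cells exposed to compound for 48 h; stained nuclei by imaging scaled within each plate; lower means fewer cells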
# HSV replic up primary fold – second read-out of HSV replic up, no call of its own (marks repeat the call); fold increase; compound at 10 µM; measured here: primary screen fold increase 10 uM; tested in PC3 cells;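 GFP signal in the first replicate; 1 = infected wells without compound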
# * marks the source's active call; other numbers are inactive results; i = inactive; . = not tested or not shown.
SMILES,HSV replic up,HSV replic up primary fold,GALR2 agonist,PKD1 kinase inh,INS promoter inh,INS promoter inh cell count,RGS16-Gao
COc1cccc(C(=O)Nc2ccc(NC(=O)C(C)C)nc2)c1,i,0.93,-1.6,6,27,141,143
O=C(CSc1ccccc1)NCCSCc1ccccc1,i,0.96,-1.3,0,-26,63,108
CCCCc1cc(=O)oc2c(CN(C)C)c(O)c(Cl)cc12,i,0.87,8.1,-2,-33,114,103
Cc1cc2nnc(SCC(=O)N3CCOCC3)n2c2ccccc12,i,0.92,.,-8,.,.,94
COc1cccc2cc(C(C)N(CCCN3CCOCC3)C(=S)Nc3c(C)cccc3C)oc12 (stereo unspecified),i,0.89,.,-4,-100,84,237
CCSc1cc(C)nc2c(-c3ccccc3)c(C)nn12,i,0.71,-2.0,-8,60,114,105
C=CCNc1sc(C(=O)c2ccccc2)c(N)c1-c1nc2ccccc2s1,i,1.1,-1.6,-5,-2,115,94
CCOC(=O)CC(=O)CSc1nc2c(sc(=S)n2-c2ccccc2)c(=O)[nH]1,i,1.1,-0.5,-9,50,154,97
O=C(NCc1cccs1)Nc1ccc2c(c1)OCO2,i,0.74,-2.3,-5,-41,48,102
Cc1nc2nc3c(cn2n1)C(=O)CCC3,.,.,-1.4,-5,15,95,102
CCOC(=O)C1=C(C)NC(=O)NC1c1ccc(N(CC)CC)cc1 (stereo unspecified),i,0.59,-1.9,-10,.,.,101
Cc1ccc(-n2c(SCC(=O)N3c4ccccc4Sc4ccccc43)nnc2-c2ccncc2)cc1,i,0.85,-1.0,9,.,.,100

# Three structures out of the list, sorted by molar mass, rising:
SMILES,HSV replic up,HSV replic up primary fold,GALR2 agonist,PKD1 kinase inh,INS promoter inh,INS promoter inh cell count,RGS16-Gao
Cc1cc2nnc(SCC(=O)N3CCOCC3)n2c2ccccc12,i,0.92,.,-8,.,.,94
C=CCNc1sc(C(=O)c2ccccc2)c(N)c1-c1nc2ccccc2s1,i,1.1,-1.6,-5,-2,115,94
COc1cccc2cc(C(C)N(CCCN3CCOCC3)C(=S)Nc3c(C)cccc3C)oc12 (stereo unspecified),i,0.89,.,-4,-100,84,237

# (list continues)
SMILES,HSV replic up,HSV replic up primary fold,GALR2 agonist,PKD1 kinase inh,INS promoter inh,INS promoter inh cell count,RGS16-Gao
Cc1cc(C)nc(SCc2ccc(C(=O)N/N=C/c3ccncc3)cc2)n1,i,1,.,5,0,137,96
O=C(COc1ccc(Cl)cc1)NCc1nnc(SCC(=O)c2ccccc2)o1,i,1,-0.8,-3,-64,88,106
O=C(Nc1ccon1)c1ccc(S(=O)(=O)N2CCOCC2)cc1,i,1.1,.,0,.,.,102
O=C1N=C(N2CCCCC2)S/C1=C\c1ccncc1,i,0.98,.,.,.,.,100
CCO[C@@H]1OC(C(=O)NC2CC2)=C[C@H](c2ccc(C(F)(F)F)cc2)[C@H]1CCCO,i,1.1,.,-6,.,.,97
Cc1ccccc1-n1c(=O)c2ccccc2n(CC(=O)NCc2ccco2)c1=O,i,0.94,.,5,-8,127,102
CCOC(=O)c1cc2ccc(OC)c(OC)c2c(=O)s1,i,0.9,-1.5,-12,-79,130,79
CSc1ccc(C(=O)C2CCCN(S(=O)(=O)c3c(C)noc3C)C2)cc1 (stereo unspecified),i,0.96,.,5,30,201,106
O=C(O)c1ccc2nc(-c3ccco3)c(-c3ccco3)nc2c1,i,0.88,.,-1,47,122,87
NC(=S)Cc1nc2n(n1)Cc1ccccc1-2,i,0.87,-1.4,-1,8,106,105
O=C(CSc1ccc(Cl)cc1)N1CCC(c2nc3ccccc3s2)CC1,i,0.88,-0.7,11,5,138,103
CCN1C(=O)/C(=C\C=C2/C=CC=CN2CC)SC1=S,i,0.86,-1.4,-8,3,90,99
COc1ccc(OCCSc2nnc3c(Cl)cc(Cl)cn23)cc1,i,1.4,1.2,4,-59,101,102
N#CC1(Nc2cccc(Br)c2)C(=O)Nc2ccccc21 (stereo unspecified),i,1.1,.,.,.,.,103
O=C(Nc1ccc(Br)cc1)c1ccc(CSC2=NCCS2)cc1,i,0.72,-1.8,-6,-48,78,102
COc1cc(N=c2oc3c(C)ncc(CO)c3cc2C(N)=O)cc(OC)c1OC,i,0.88,.,6,19,145,101
CCC(=O)Nc1nc2ccc(NC(=O)c3cc(OC)c(OC)c(OC)c3)cc2s1,i,0.82,.,-10,.,.,106
O=C(Nc1cccc2ccccc12)/C(Cl)=C/c1ccccc1,i,0.91,-1.1,3,4,100,70
CC(OC(=O)Cn1c(C(F)(F)F)nc2ccccc21)C(N)=O (stereo unspecified),i,0.95,-0.2,-6,-9,82,108
CCC(C)n1cnc2c(c1=O)c1nc3ccccc3nc1n2-c1ccc2c(c1)OCCO2 (stereo unspecified),.,.,-0.7,4,-8,92,99
Cc1ccc(OCc2nnc(NC(=O)OCC(C)C)s2)c(C)c1,.,.,-1.3,-6,.,.,102
O=C(Nc1ccc2c(c1)OCO2)C1CCCN1C(=O)Nc1ccccc1F (stereo unspecified),i,0.74,0.8,-6,50,102,113
Cc1cc(C)cc(NC(=O)Nc2cccc(S(N)(=O)=O)c2)c1,i,0.92,.,.,.,.,100
Cc1ccc(S(=O)(=O)N2CCN(C(=O)N(C)C)CC2)cc1,i,0.91,.,-8,-33,128,132
O=C(NC1=NCCS1)c1cc(-c2cccnc2)nc2ccccc12,i,0.86,.,-8,.,.,100
COc1ccc(C(=O)Nc2ccc(S(=O)(=O)NC(C)=O)cc2)cc1[N+](=O)[O-],i,0.92,.,0,.,.,97
CC(=O)c1ccc(N2CCN(C(=O)c3cc4c(s3)CCCC4)CC2)cc1,i,1.1,.,-4,.,.,101
S=C(Nc1ccc(Cl)cc1Cl)Nn1cnnc1,i,0.94,-0.9,-15,.,.,120
Cc1ccc(C(=O)NC(NCc2ccco2)C(Cl)(Cl)Cl)cc1 (stereo unspecified),i,0.98,-1.8,-8,6,55,63
Cc1cc(C2=CC(C)(c3cc(C)oc3C)Nc3nc(C(F)(F)F)nn32)c(C)o1 (stereo unspecified),i,1,0.2,-27,-29,101,103
CNS(=O)(=O)c1cccc(C(=O)OCC(=O)N2c3ccccc3CC2C)c1 (stereo unspecified),i,1.1,-0.6,-5,-50,66,105
COC(=O)c1cc2occc2n1CC(=O)N(C)C1CCCCC1,i,0.86,-0.5,-4,.,.,105
Cc1ccc(CS(=O)(=O)CCC(=O)NCCN2CCCC2)cc1,i,0.88,-1.8,-2,-47,88,101
Cc1ccnc(N2CCC(C(=O)NCc3ccccc3F)CC2)n1,i,1,.,4,-25,95,101
CSc1nc2ccc(NC(=O)C3CC(=O)N(Cc4ccccc4)C3)cc2s1 (stereo unspecified),i,1,0.4,-5,0,58,98
CC(=O)N1CC[n+]2c(-c3ccc(Cl)cc3)csc21,i,1.1,-1.6,-4,14,89,88
C#CCOCCOCCOCCNc1nc(N2CCN(C(=O)[C@H]([C@@H](C)O)n3cc(CCCCN)nn3)CC2)nc(N2CCN(C(=O)[C@H](C)n3cc(CCCN=C(N)N)nn3)CC2)n1,i,0.87,-2.2,-14,0,104,75
O=C(CCc1ccccc1)NC(NC(=S)Nc1ccc(Br)cc1)C(Cl)(Cl)Cl (stereo unspecified),i,0.75,-1.3,0,-51,86,97
CCOC(=O)C1CCN(C(=O)CNC(=O)OC(C)(C)C)CC1,i,0.79,-1.5,-4,-42,109,98
COc1ccc(NC(=O)Nc2ccccc2F)cc1Cl,i,1.1,.,8,.,.,99
CC12CCC(C(N)=O)(c3nc4ccccc4nc31)C2(C)C (stereo unspecified),i,0.85,-0.5,0,26,112,59
O=C(O)CCCNS(=O)(=O)c1cccc2nsnc12,i,0.87,0.7,-2,24,101,111
COC(=O)COc1cccc(NS(=O)(=O)c2ccc(NC(C)=O)cc2)c1,i,0.78,-2.7,0,-118,72,102
O=C(NCCN1CCOCC1)C12CC3CC(C1)CC(c1ccccc1)(C3)C2,i,1,.,3,6,98,100
CCCN(CC1CC1)C(=O)Nc1ccccc1C,i,0.88,-1.3,5,15,138,107
O=C(N/N=C/c1cccc([N+](=O)[O-])c1)C1CC(=O)N(c2ccc(Cl)cc2)C1 (stereo unspecified),i,0.78,-1.9,-7,8,60,100
CCCOC(=O)/C(C(N)=NCc1ccccc1)=C(\O)OCCC,i,0.75,0.6,-20,25,137,102
Cc1nn(C(C)C(=O)Nc2ccc3c(c2)OCO3)c(C)c1[N+](=O)[O-] (stereo unspecified),i,1,.,-4,.,.,103
COCCNCC(=O)Nc1ccc(OC(F)(F)F)cc1,i,1,.,-3,42,145,111
CCn1c(=O)cc(OCC(=O)NC(C)c2ccc3c(c2)OCCO3)c2ccccc21 (stereo unspecified),i,0.91,-1.1,-1,-25,44,100
COc1ccc([N+](=O)[O-])cc1NC(=O)CC(c1ccccc1)c1ccccc1,i,0.97,-0.8,-2,-193,118,104
Cc1cccc(C)c1NC(=O)CSc1nnnn1-c1ccc(C(=O)O)cc1,i,1,-0.2,-4,-44,31,107
COc1ccccc1NC(=O)CSc1nc(O)cc(=O)n1C,i,0.94,-2.5,-14,-281,61,97
O=C(Cn1cc2c(n1)CCCC2)Nc1ccccc1Br,i,0.91,-3.2,-6,.,.,99
Cc1nonc1OC(C)CNCCNc1ccc([N+](=O)[O-])cc1 (stereo unspecified),i,1.1,.,.,.,.,99
Cn1cnc([N+](=O)[O-])c1NCc1ccccc1,i,0.88,.,.,.,.,102
Cc1cc2c(NC(=O)Nc3ccccc3)cccc2nn1,i,1.1,.,.,.,.,105
CCOCCCNC(=O)Cc1c(C(=O)O)[nH]c2ccc(Cl)cc12,i,0.98,0.0,-12,.,.,104
CCn1cc(/C=C/C(=O)Nc2c(C)nn(Cc3ccccc3)c2C)cn1,i,1.1,-0.8,4,-8,138,107
Cc1cc(C)nc(N2N=C(CSc3ccc(Cl)cc3)CC2=O)n1,i,0.99,.,9,-15,133,102

# Brought forward from above: 5 entries, then new ones.
SMILES,HSV replic up,HSV replic up primary fold,GALR2 agonist,PKD1 kinase inh,INS promoter inh,INS promoter inh cell count,RGS16-Gao
Cn1cnc([N+](=O)[O-])c1NCc1ccccc1,i,0.88,.,.,.,.,102
Cc1cc2c(NC(=O)Nc3ccccc3)cccc2nn1,i,1.1,.,.,.,.,105
CCOCCCNC(=O)Cc1c(C(=O)O)[nH]c2ccc(Cl)cc12,i,0.98,0.0,-12,.,.,104
CCn1cc(/C=C/C(=O)Nc2c(C)nn(Cc3ccccc3)c2C)cn1,i,1.1,-0.8,4,-8,138,107
Cc1cc(C)nc(N2N=C(CSc3ccc(Cl)cc3)CC2=O)n1,i,0.99,.,9,-15,133,102
Cc1ccc(NC(=O)COC(=O)Cn2nc(C)c([N+](=O)[O-])c2C)c([N+](=O)[O-])c1,i,0.96,-0.6,-2,-6,94,181
Cc1ccc(-c2nn(-c3ccccc3)cc2/C=C/C(=O)Nc2nccs2)cc1,i,0.84,3.9,-2,.,.,99
CCN(CC)S(=O)(=O)c1ccc(OC)c(NC(=O)C(C)Oc2ccc3c(C)cc(=O)oc3c2)c1 (stereo unspecified),i,0.84,0.0,1,-40,107,97
Cc1ccc(-n2c(C)cc(C(=O)CN3CCCCC3)c2C)cc1,i,1.1,-1.7,3,-27,47,133
CCC(C)c1ccc(Nc2ncccc2C#N)cc1 (stereo unspecified),i,0.86,-2.2,3,.,.,113
C/C(=N\Nc1nnc(-c2ccccc2)c(-c2ccccc2)n1)c1cccc([N+](=O)[O-])c1,i,0.8,1.1,-257,7,65,104
NC(=S)N/N=C1\CC(c2ccc3c(c2)OCCO3)Oc2ccc(F)cc21 (stereo unspecified),i,1,.,.,.,.,99
COC(=O)CSc1ncc(OC)c(OC)n1,i,1.1,-1.7,-15,.,.,92
COc1ccc(/C=C/C(=O)NCC(=O)N/N=C(\C)Cc2ccccc2)cc1,i,1.2,.,.,.,.,94
O=C(/C=C/c1ccccc1)Nc1sc2c(c1C(=O)O)CCC2,i,0.99,.,.,.,.,99
Cc1cc(C)c2c(NC(=O)CCl)nn(C)c2n1,i,0.97,.,2,39,113,104
